NS1 inh: influenza NS1 inhibition; S. cerevisiae slowed by influenza A NS1, growth recovery by OD600; Potency, µM (series often up to 46.1 µM), without a hit: at the top dose activity, positive = more growth; 270,000 tested, 0.4% active; also: actives are rising curves; nearly all actives have a fitted effect of over 50% in size
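S. cerevisiae expressing influenza A NS1, grown in glucose, washed, then diluted 1:100 into pH 6.0 -URA galactose medium with 23 nl compound. Growth recovery read as OD600; NS1-free strain serves as control.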
SARS PLP yeast: blocks SARS-CoV papain-like protease in a yeast assay. S. cerevisiae expressing SARS-CoV PLpro, growth rescue; control for the full effect not named in the record. Potency, µM (highest dose often 32.9 µM), for the others: top-dose activity, positive = growth rescue. 330,000 tested, 0.19% active. AID 485353; also: 0% is about no effect; nearly all actives have a fitted effect of over 55% in size; growth read by luminescence after 48 h
2A StopGo: lowers the luciferase signal of an FMDV 2A StopGo reporter; 410,000 tested, 1.2% active; human cells with a luciferase reporter of 2A StopGo recoding; control for the full effect not named in the record; AID 1159524; Potency, µM (doses to about 57.9 µM), inactives show top-dose signal change, negative = less light; active = well fitted falling curve with a large enough effect; inconclusive = small, poorly fitted or top-dose-only effect; inactive = no such curve, though single readings can be large or run the other way; tested in HEK293T cells; also: % is scaled to controls: 0 for no effect and ±100 for the full control effect; nearly all actives have a fitted effect of over 45% in size; luciferase light after 4 h
Active calls of the source: *; ? = inconclusive; nt = no result given; & = joins results of further samples; [ ] = remark or other dose. Unless noted, calls follow the shape of the dose curve; as a rule, active means well fitted rising curve with a large enough effect; inconclusive means small, poorly fitted or top-dose-only effect; inactive means no such curve, though single readings can be large or run the other way. Potency is read from the fitted curve at half-maximal effect. An excerpt, so the mix of outcomes need not match the whole.

SMILES | NS1 inh | SARS PLP yeast | 2A StopGo
O=S(=O)(c1ccc(F)cc1)N1CCN(S(=O)(=O)c2ccc3c(c2)OCCO3)CC1 | nt | 4.6% | -15.7%
Clc1cccc(-c2ccc(C3Nc4cccc5cccc(c45)N3)o2)c1 | nt | 7.9% | 1.9%
COc1cccc(-c2ccc3ncnc(NCc4ccc5c(c4)OCO5)c3c2)c1 | nt | 2.5%&3.2% | -13.5%
c1ccc(CNc2ccc(N3CCOCC3)cc2)cc1 | nt | 0.4% | 48.9%[activator]
COc1cccc(S(=O)(=O)NC2CCN(C#N)C2)c1 (configuration not stated) | nt | -3.5% | 17.5%
CC(=O)NC(C)c1cc(F)c2cccnc2c1O (configuration not stated) | nt | 9.9%&-0.5% | -18.0%
Cn1nnnc1Sc1ncnc2scc(-c3cccc4ccccc34)c12 | nt | 2.2% | ?
c1cncc(-c2ccc3ncnc(NCc4cccs4)c3c2)c1 | nt | -0.1%&16.9% | -22.1%
Oc1cc(NCc2ccc(F)cc2)cc2cccnc12 | nt | -0.5%&0.7% | -1.9%
Oc1c(CN2CCCC2)cc(COCc2ccccc2)c2cccnc12 | nt | 1.4%&2.3% | -26.8%
NC(=O)c1ccc(-c2noc(-c3ccccc3F)n2)cc1 | nt | 3.3% | 49.4%[activator]
NC(=O)C1CCN(c2nc(-c3ccc(F)cc3)cs2)CC1 | nt | -1.0%&-11.7% | -16.2%
COc1ccc(-c2csc3ncnc(Sc4nnnn4C)c23)cc1 | nt | -20.4% | ?
O=c1[nH]c(-c2ccc(-c3cccc(Cl)c3)o2)nc2ccccc12 | nt | 6.5% | 43.2%[activator]
CCn1cnc2c(Nc3cc(F)cc(F)c3)nc(C#N)nc21 | nt | -0.4% | 0.0%
OCC#CCSc1nnc(-c2cccc3ccccc23)o1 | nt | -6.4%&4.8% | 21.7%
Clc1cccc(-c2ccc3ncnc(NCc4cccs4)c3c2)c1 | nt | 1.0%&-20.8% | ?
O=C(OCC#CCSc1nnc(-c2cccc3ccccc23)o1)c1cccc2[nH]ccc12 | nt | -5.2%&1.5% | -9.5%
Cc1nc(SCc2nc3c(C)cccc3[nH]2)c2oc3ccccc3c2n1 | nt | -1.4% | -28.4%
Cn1ccc2cc(-c3ccc4ncnc(NCc5cccs5)c4c3)ccc21 | nt | -10.6%&-10.0% | ?
Cc1cccc(CNc2ncnc3ccc(-c4ccccc4Cl)cc23)c1 | nt | -17.2%&-2.5% | -7.1%
c1cc2c(cc1CNc1ccc(N3CCOCC3)cc1)OCO2 | nt | -10.4% | 25.8%
COc1ccc(C2=Nn3c(nnc3-c3ccccc3Cl)SC2)cc1OCC1CC1 | nt | 0.5% | -15.2%
CN1CCN(C(=O)c2cccc(-c3cc(O)c4ncccc4c3)c2)CC1 | nt | 6.2%&-23.5% | -6.5%
N#Cc1cc(-c2ccccc2)[nH]c1-c1nccc2ccccc12 | -18.6% | -5.1% | 28.2µM*

Filtered by structure: those above with a Cl atom
SMILES | NS1 inh | SARS PLP yeast | 2A StopGo
Clc1cccc(-c2ccc(C3Nc4cccc5cccc(c45)N3)o2)c1 | nt | 7.9% | 1.9%
O=c1[nH]c(-c2ccc(-c3cccc(Cl)c3)o2)nc2ccccc12 | nt | 6.5% | 43.2%[activator]
Clc1cccc(-c2ccc3ncnc(NCc4cccs4)c3c2)c1 | nt | 1.0%&-20.8% | ?
Cc1cccc(CNc2ncnc3ccc(-c4ccccc4Cl)cc23)c1 | nt | -17.2%&-2.5% | -7.1%
COc1ccc(C2=Nn3c(nnc3-c3ccccc3Cl)SC2)cc1OCC1CC1 | nt | 0.5% | -15.2%

The results go on.
SMILES | NS1 inh | SARS PLP yeast | 2A StopGo
CC(C)(C)CC(C)(C)N1CNC(=S)NC1 | 6.3% | 4.0% | -6.0%
NCCCNc1nc(N)c([N+](=O)[O-])c(NC2CCCCC2)n1 | 1.5% | -1.4% | ?
COC(=O)c1sccc1NS(=O)(=O)c1ccc(F)cc1F | -3.5% | 10.3% | -2.8%
N#CC1=C(N)Oc2cc(O)c(Cl)cc2C1c1ccccc1F (configuration not stated) | 2.6% | 0.1% | -12.7%
O=C(O)c1cc2ccccc2c2cc(Br)ccc12 | -43.6% | -3.1% | -20.7%
Nc1nc(N)nc(-c2ccccc2-c2nc(N)nc(N)n2)n1 | 1.8% | 0.4% | -16.1%
Nc1ccc(/C=C/c2ccc3ncccc3c2)cc1 | 16.0% | -3.0% | 15.9%
COP(=O)(OC)c1nc(-c2ccc(C)cc2)oc1N1CCCCC1 | -3.9% | 0.8% | -28.1%
CCOc1ccc(/C=C/C(=O)c2ccccc2)cc1 | -36.3% | -6.4% | 7.6%
CCCc1cc(NCCCN(C)C)n2c(nc3ccccc32)c1C#N | -0.8% | -2.1% | -19.7%
S=c1nc2ccccc2c2nc(-c3ccccc3Cl)[nH]n12 | 7.0% | 2.2% | 16.8%
CC(=O)Nc1nn(C)c2nc3ccc(C)cc3cc12 | 2.2% | 1.1% | -24.3%
O=C(NC(=S)Nc1ccccn1)c1ccccc1 | -37.9% | -5.7% | 45.6%[activator]
O=C(O)c1ccc(Nc2nc(-c3ccc([N+](=O)[O-])cc3)nc3ccccc23)cc1 | 3.9% | 1.9% | -18.8%
COc1ccc(C(=O)N2CCCC2(C#N)c2ccccc2)cc1[N+](=O)[O-] (configuration not stated) | 4.9% | 0.3% | ?
Cc1ccc(N2CCN(CC(O)COc3cccc(C)c3)CC2)cc1 (configuration not stated) | -7.7% | -5.8% | -1.2%
Cn1c(COc2ccccc2O)[n+](C)c2ccccc21 | -2.6% | 0.7% | -0.1%
COc1ccc(NC(=O)CC(C)=O)c(OC)c1 | 4.6% | -0.9% | 2.4%
Clc1cccc(CN2CCc3c([nH]c4ccccc34)C2)c1Cl | 4.8% | -3.1% | ?
Cc1cc(NC(=O)CNCC(c2ccccc2)N(C)C)c([N+](=O)[O-])cc1C (configuration not stated) | 0.6% | 1.4% | -10.6%
COCCNC(=S)N(CCc1c(C)[nH]c2ccc(Cl)cc12)Cc1cccnc1 | -3.5% | 19.1% | 41.4%[activator]
Oc1c(Br)cc(Br)cc1C=Nc1cccnc1 | -68.4% | -2.3% | -17.5%
COc1ccccc1N1C(=O)CC(Sc2ccccc2N)C1=O (configuration not stated) | 2.9% | 12.2% | 0.0%
CCOC(=O)Nc1c(Cl)n(C)c(=O)n(C)c1=O | -2.4% | 1.0% | -19.9%
O=C(Nc1ccccc1O)c1cc2cc(Br)ccc2oc1=O | -0.6% | -0.9% | 35.9%[activator]

The list continues:
SMILES | NS1 inh | SARS PLP yeast | 2A StopGo
Cc1cc(C)n(C(N)=NC(=O)c2ccc([N+](=O)[O-])cc2)n1 | 4.8% | -0.9% | 45.6%[activator]
Oc1ccc2ccc3[nH]cnc3c2c1 | 0.8% | 3.3% | 33.8%[activator]
CN(C)CCCn1cnc2c(c1=N)C(c1ccccc1)c1ccc3ccccc3c1O2 (configuration not stated) | 0.8% | -0.7% | ?
Cc1ccc2c(nc3s/c(=C\c4ccc(-c5ccccc5C(=O)O)o4)c(=O)n32)c1C | 7.4% | 0.7% | 10.7%
COc1ccc(NC(=O)c2ccccc2NC(=O)c2ccccc2)cc1 | -2.8% | 0.0% | 13.1%
CCOc1ccc(-n2cnc3c(=O)[nH]c(N)nc32)cc1 | 2.1% | 0.9% | -8.5%
O=C(NC1CCCCNC1=O)c1ccco1 (configuration not stated) | -0.6% | -1.1% | -1.8%
O=C1Nc2ccccc2C1(O)c1ccccc1O (configuration not stated) | -1.3% | -0.3% | -16.5%
Nc1cc(Cl)ccc1N1C(=O)CCC1=O | 1.5% | 0.8% | -16.3%
COc1ccc(C2NN=C(c3c[nH]c4ccccc34)C2O)cc1 (configuration not stated) | 12.5% | -1.1% | 28.1%
c1ccc2c(c1)[nH]c1c3ccccc3sc21 | -1.4% | -0.8% | 0.0%
O=C(NC(=S)NNC(=O)c1ccccc1O)c1ccc([N+](=O)[O-])cc1 | 3.4% | -0.7% | -9.2%
Cc1ccc(NC(=O)C(C)S)cc1 (configuration not stated) | 3.4% | 0.5% | -14.4%
Oc1ccc2c(ccc3[nH]cnc32)c1 | 7.7% | 0.5% | 33.0%[activator]
CCNc1nc(Cl)nc(-c2cn(-c3ccccc3)c3ccccc23)n1 | -1.8% | 2.4% | -6.9%
COc1ccc(CNCCc2ccc3c(c2)OCO3)cc1Br | 1.5% | 0.6% | -15.2%
O=C(O)CC1(CC(=O)Nc2cccc(C(=O)O)c2)CCCC1 | 0.4% | 2.2% | 3.5%
O=C(c1ccc(OC(F)(F)F)cc1)c1ncc[nH]1 | -2.3% | -0.8% | 55.3%[activator]
Cc1cc(NC(=O)c2ccc(F)cc2)n(-c2ccccc2)n1 | -2.3% | 0.3% | -3.1%
NC(N)=NC(N)=Nc1ccc(O)cc1 | 2.1% | -1.4% | -8.4%
CNC(=S)n1cnc(N)n1 | 3.0% | -1.1% | -12.7%
NS(=O)(=O)c1ccc(CNC(=O)C(Cc2ccccc2)NS(=O)(=O)c2ccccc2F)cc1 (configuration not stated) | -2.1% | -3.6% | 1.3%
CC1CCN(CC(O)CN2c3ccccc3Sc3ccccc32)CC1 (configuration not stated) | 1.4% | -0.8% | ?
COC(=O)c1cncc(C)c1 | 1.7% | -1.6% | 41.4%[activator]
COc1ccc(C(=S)N2CCN(c3ccccc3Cl)CC2)cc1OC | -36.5% | 3.0% | 0.3%

The list continues.
SMILES | NS1 inh | SARS PLP yeast | 2A StopGo
CC(=O)c1c[nH]c(C(=O)NCc2ccccc2Cl)c1 | 2.3% | 3.5% | 11.1%
CCOC(=O)C(C#N)=C1CCN(Cc2ccccc2)CC1 | 2.7% | 2.5% | -11.5%
CCCS(=O)(=O)c1cnc(C2COc3ccccc3O2)nc1N (configuration not stated) | -1.1% | -3.0% | 35.5µM*
Nc1ccccc1SC1CC(=O)N(c2ccccc2Cl)C1=O (configuration not stated) | 5.6% | -1.1% | 17.3%
CCOC(=O)c1cc[nH]c1CC(=O)NC | -2.6% | -1.0% | 5.1%
C/C(=N\Nc1ccc([N+](=O)[O-])cc1[N+](=O)[O-])c1cccnc1 | -7.8% | -1.3% | 58.4%[activator]
Cc1c(-c2ccccc2Cl)nc2ccccc2c1C(=O)O | 5.3% | 0.6% | -23.7%
Clc1ccc2c(c1)nc1n2CCCC1 | -5.8% | -5.9% | 16.6%
Nc1cnc(Nc2ccc(Br)cc2)nc1N | 8.0% | -1.6% | 47.1%[activator]
c1ccc(-c2ccc3c(c2)NC(C2Nc4cc(-c5ccccc5)ccc4O2)O3)cc1 (configuration not stated) | 2.4% | 14.1% | -5.8%
O=C1c2cccc3c([N+](=O)[O-])ccc(c23)C(=O)N1O | -35.6% | 0.4% | ?
O=C(Nc1ccc(F)cc1)Oc1ccc[nH]c1=O | -31.4% | 4.3% | 23.1%
O=C(Nc1ccc(Cl)c(Cl)c1)c1ccc(Cl)c(Cl)c1 | 4.2% | 1.7% | -0.4%
COc1ccccc1C1OC2=C(Nc3ccc([N+](=O)[O-])cc3N2)C1=O (configuration not stated) | -5.6% | -0.7% | -25.2%
COc1cc2oc3cc(C)oc(=O)c3c2cc1OC | -68.2% | -1.0% | -21.7%
O=C1C(=O)N(C/C=C/c2ccccc2)c2ccccc21 | -35.7% | -3.0% | -1.5%
O=C(CC12CC3CC(CC(C3)C1)C2)Nc1c(F)cccc1F | -3.9% | 1.6% | 1.4%
O=c1[nH]c(O)c(C=Nc2cccc(F)c2)c(=O)[nH]1 | 0.7% | -2.6% | -8.1%
Cc1cc2nc(CO)[nH]c2cc1C | 0.5% | -2.4% | 28.0%
Cc1ccccc1-c1nc2cc(Cl)ccc2c(=O)o1 | 6.8% | -0.7% | -2.4%
COc1ccc(OC)c(NC(=O)N2CCCC(C)C2)c1 (configuration not stated) | -0.7% | -1.3% | -6.1%
O=C(c1cccnc1)c1ncc(C(F)(F)F)cc1Cl | 0.5% | -0.8% | -9.4%
CCOc1ccc(N)c(SSc2cc(OCC)ccc2N)c1 | -65.9% | -10.5% | 11.0%
Oc1c(Cl)cc(Cl)cc1C=Nc1cc(C(F)(F)F)ccc1N1CCc2ccccc2C1 | -79.2% | -9.1% | -29.8%
Cc1cccc(N2CCN(CC(O)COc3ccc(Cl)cc3)CC2)c1 (configuration not stated) | ? | -0.4% | -15.6%
O=C(N/N=C/c1ccccn1)c1ccncc1 | -1.9% | 0.1% | 12.4%
COc1ccc(CNC(C)C23CC4CC(CC(C4)C2)C3)c(OC)c1OC (configuration not stated) | -4.7% | -1.1% | -21.4%

Entries of single compounds, quoted from the list. Order of values: NS1 inh | SARS PLP yeast | 2A StopGo
Clc1cccc(CN2CCc3c([nH]c4ccccc34)C2)c1Cl is listed with 4.8% | -3.1% | ?
O=C(NC(=S)Nc1ccccn1)c1ccccc1 is listed with -37.9% | -5.7% | 45.6%[activator]
CCOC(=O)C(C#N)=C1CCN(Cc2ccccc2)CC1 is listed with 2.7% | 2.5% | -11.5%
CC(=O)Nc1nn(C)c2nc3ccc(C)cc3cc12 is listed with 2.2% | 1.1% | -24.3%
Cn1c(COc2ccccc2O)[n+](C)c2ccccc21 is listed with -2.6% | 0.7% | -0.1%
